From PubChem
Vif TR-FRET – HIV-1 Vif–A3G interaction blockers – biochemical, TR-FRET, GST-Vif 1-94, biotin-A3G peptide, dose response retest, primary screen (AID 1117319). TR-FRET GST-Vif / biotin-A3G peptide binding; higher % means a stronger effect; test concentration not given here; strong numbers were not always called active. one-dose inhibition, %; IC50 in µM for titrated hits. 260,000 compounds, 0.57% hits;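 active means above the screen mean plus three standard deviations and confirmed in dose response; inconclusive means results disagree or hit not tested in dose response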;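 further: Vif residues 1-94 fused to GST binding biotinylated APOBEC3G peptide 110-148; 0% = full assay without inhibitor and 100% = GST in place of GST-Vif; retest series ran down from 100 µM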
Ecoli rRNA inh – inhibits bacterial ribosomal RNA function over humanized ribosomes. 350,000 compounds, 1.6% hits. E. coli WT GFP vs humanized-ribosome RFP mutants, fluorescence, 24 h; active compounds read low; DMSO median 0, no signal -100. GFP signal change (wild-type ribosome), % (no concentration beside the values);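 active means significant combined selectivity score with lowered wild-type GFP, culture density cut under 30%, mutant RFP and density less affected; inactive means any of these conditions unmet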; further: one replicate is shown; some compounds called inactive have numbers as strong as hits
MLL AF4-AF9 inh – blocks AF4 peptide binding to human AF9. P42568. 350,000 compounds, 0.47% hits. inhibition, % at 10 µM. AlphaScreen, biotin-AF4 peptide binding to FLAG-AF9;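 active means every replicate reaching a set inhibition limit, whatever the replicate mean, cut at about 25% in these data; inconclusive means mean inhibition reaches that limit but some replicates miss it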;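 further: 0% = plate neutral control median and 100% = total signal loss; the record names both 10 and 1 µM as test concentration; the first replicate is given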
E coli growth – E. coli growth inhibition | Escherichia coli growth, OD600, 23 h; active compounds read low | OD600 absorbance (test concentration not listed) | 330,000 compounds, 0.21% hits;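 active means OD600 absorbance below the run mean of sample wells minus 3.6 SD, in any replicate, cut at about 0.56 in these data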;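 further: stock transfer was 300 nL into about 60 µL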
FGF22 binding – binders of recombinant human FGF22 by thermal shift | 340,000 compounds, 1.5% hits | calls only at 9.99 µM | AID 651658 | SYPRO orange fluorescence; percent of sucrose octasulfate shift, DMSO zero;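 active means melting point raised past a set limit in the mean and every replicate; inconclusive means no clear call; three in four hits are not shown here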
Target sequence (Q9HCT0 whole entry, looked up): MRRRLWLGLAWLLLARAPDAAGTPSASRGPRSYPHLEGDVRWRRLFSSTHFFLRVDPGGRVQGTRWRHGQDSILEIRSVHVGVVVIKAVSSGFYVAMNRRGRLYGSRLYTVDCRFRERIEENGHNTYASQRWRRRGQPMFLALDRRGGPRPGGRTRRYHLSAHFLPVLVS
HNF4A DNA FP – change in binding of human HNF4 alpha to DNA; P41235; HNF4a-FITC DNA binding, fluorescence polarization, 1 h; activity change, % at 10 µM; 360,000 compounds, 0.3% hits; AID 1224865; in the data active means activity change above about 30%, passing the limit was not always enough;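 further: controls were the assay level and a saturating level of protein; the project sought stronger binding though the title names inhibitors; some compounds called inactive have numbers as strong as hits; positive values seem to mean higher polarization but the record does not say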
Target sequence (P41235 whole entry, looked up): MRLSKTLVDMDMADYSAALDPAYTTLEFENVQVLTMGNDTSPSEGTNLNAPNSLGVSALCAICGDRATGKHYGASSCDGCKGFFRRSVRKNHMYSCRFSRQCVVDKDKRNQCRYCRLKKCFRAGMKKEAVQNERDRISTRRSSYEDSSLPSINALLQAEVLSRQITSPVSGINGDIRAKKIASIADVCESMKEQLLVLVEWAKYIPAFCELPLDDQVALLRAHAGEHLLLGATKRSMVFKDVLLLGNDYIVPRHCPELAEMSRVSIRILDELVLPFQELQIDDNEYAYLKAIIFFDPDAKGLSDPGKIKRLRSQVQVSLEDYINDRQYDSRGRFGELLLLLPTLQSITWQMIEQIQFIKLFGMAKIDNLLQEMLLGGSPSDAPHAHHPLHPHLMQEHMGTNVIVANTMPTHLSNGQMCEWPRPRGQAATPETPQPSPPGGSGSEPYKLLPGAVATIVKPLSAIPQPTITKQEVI
ALR H2O2 inh – inhibitors of human sulfhydryl oxidase ALR; 290,000 compounds, 3.8% hits; P55789; purified ALR, DTT oxidation, H2O2 HRP-luminol luminescence; inhibition, % (test concentration not listed);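 active means mean and each replicate at 75% or more; inconclusive means only one of the two met; inactive means neither met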;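 further: stock transfer was 7.5 nL into about 7.5 µL; 0% = neutral wells and 100% = wells with inactivated enzyme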
Target sequence (P55789 whole entry, looked up): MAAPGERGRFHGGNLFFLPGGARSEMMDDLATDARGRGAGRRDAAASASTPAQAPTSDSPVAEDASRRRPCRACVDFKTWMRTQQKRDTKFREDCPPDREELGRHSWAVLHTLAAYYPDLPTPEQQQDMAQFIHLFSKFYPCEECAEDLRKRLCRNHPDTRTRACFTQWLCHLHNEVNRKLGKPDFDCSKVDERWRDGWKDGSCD
Ecoli rRNA inh OD600 – recorded beside Ecoli rRNA inh, whose call it bears; OD600 change, %; measured here: OD600 growth;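 optical density of the mix in the first replicate; 0 = DMSO median and -100 = no signal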
Ecoli rRNA inh RFP – further read-out of Ecoli rRNA inh, marked with its call; RFP signal change, %; measured here: RFP humanized mutant strains;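 first replicate; 0 = DMSO median and -100 = no signal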
* marks the source's active call; other numbers are inactive results; i = inactive; ? = inconclusive; / = not tested or not shown; + = active, no number; & = joins results of further samples.

SMILES	Vif TR-FRET	Ecoli rRNA inh	Ecoli rRNA inh OD600	Ecoli rRNA inh RFP	MLL AF4-AF9 inh	E coli growth	FGF22 binding	HNF4A DNA FP	ALR H2O2 inh
CCN(CC)S(=O)(=O)c1ccc(-c2nnc(SCC(N)=O)n2CC)cc1	/	9	6	-8.2	-3.4	0.66	i	0.1	2
Cc1cc(SCC(=O)c2cccc([N+](=O)[O-])c2)nc(=O)[nH]1	/	/	/	/	/	0.71	/	5.0	49
CCOC(=O)[C@]12CCCC=C1N(CCc1ccc(OC)c(OC)c1)C(=O)[C@H](CC(=O)N1CCCC1)C2	/	-7	-13	-3.2	-2.9	/	i	2.4	/
O=C(O)CCC(=O)Nc1ccc(F)cc1	1%	/	/	/	/	0.72	/	1.7	-3
CCOc1ccc(C(=O)NCCC(=O)NCCCC(=O)O)cc1	5%	6	-2	-2.4	-21	0.67	i	-1.6	-3
CCC(=O)N1c2ccc(S(=O)(=O)N3CCCCC3)cc2CC1C (configuration not stated)	1%	0	1	-0.8	0.2	0.7	i	0.3	0
CCCC(=O)N1CCC2(CC1)CN(Cc1nccs1)[C@H](CO)c1[nH]c3cc(OC)ccc3c12	/	2	4	3.5	-4.8	/	i	/	/
CN(C)S(=O)(=O)Oc1ccccc1C(=O)Nc1ccc(F)cc1	-14%	0	2	-2.4	-0.8	0.73	i	3.8	-9
Cc1c(C(=O)N(C)C)c2cc(Cl)ccc2n1O	-4%	2	5	-1.6	0.2	0.71	i	3.1	98*
CCOC(=O)CNC(=O)CSc1nccn1Cc1ccco1	-7%	3	10	0.8	-3.3	0.7	i	-1.6	2
Cc1ccc2c(c1)nnn2C1CCN(CC(=O)c2ccc(Cl)cc2)CC1	6%	/	/	/	/	0.72	/	4.3	/
O=c1oc(-c2cccs2)nc2c1cnn2-c1ccccc1	-6%	/	/	/	/	0.7	/	-0.9	3
Cc1onc(-c2ccccc2Cl)c1C(=O)Nc1ccc(Br)cc1	/	-14	-37	9.6	-1.2	0.68	i	-0.5	/
COc1ccccc1-c1cnc2c(c1)C(=O)N([C@@H](C)CO)C[C@H](C)[C@@H](CN(C)CC1CCCC1)O2	/	-1	-9	-2.6	-1.4	/	i	/	/
CC(C)CCn1c(=O)c2ccccc2n2c(CCC(=O)NC3CCN(Cc4ccccc4)CC3)nnc12	/	5	-7	2.4	-0.6	0.68	i	-2.7	-7
CC(C)C[C@H]1CN([C@@H](Cc2ccc(O)cc2)CN2CCC[C@@H]2CN2C(=S)NC[C@@H]2Cc2ccccc2)C(=S)N1CCc1ccccc1	/	8	4	1.5	-0.9	/	i	-2.4	/
Cc1cccc(Cc2nnc(CCC(=O)N3CCCC(CN4CCOCC4)C3)o2)c1 (configuration not stated)	2%	15	10	3.2	-1.7	0.67	i	2.8	-6
COc1ccc(C(C(=O)NC2CCCCC2)N(C(=O)Cc2c[nH]c3ccccc23)c2ccccc2)cc1OC (configuration not stated)	-1%	/	/	/	/	0.67	/	-3.2	1
CCS(=O)(=O)N1CCc2nc(-c3ccccc3)sc2C1	15%	-13	-18	0.6	-1.2	0.66	i	1.1	-5
Cc1ccc2[nH]c(CCN(C)C)c(CC#N)c2c1	4%	/	/	/	/	0.63	/	-0.7	0
CCC(C)NCC(=O)Nc1cc(S(=O)(=O)N(CC)c2ccccc2)ccc1Cl (configuration not stated)	4%	/	/	/	/	0.69	/	-1.6	/
CCn1c(SCC(=O)Nc2cc(C)nn2-c2ccccc2)nnc1-c1cccs1	-2%	0	2	2.6	2.8	0.74	i	2.9	0
Cc1cc2cc(CNC(=O)c3cccs3)ccc2n1C	-1%	5	3	44	-3.3	0.66	i	-8.8	-16
Cc1ccc(S(=O)(=O)NCC[C@@H]2CC[C@H](NC(=O)c3ccccn3)[C@H](CO)O2)cc1	/	-1	0	-2.6	-0.1	/	i	/	/
CCOc1cc(C)c(Cl)cc1S(=O)(=O)n1ccnc1	-1%	18	8	1.6	-0.9	0.67	i	2.5	-13
Cn1cccc1/C=C1\CC(C(C)(C)C)C/C(=C\c2cccn2C)C1=O (configuration not stated)	1%	/	/	/	/	0.75	/	140	/
Cc1ccc(-n2nnnc2SCC(=O)N2CCc3ccccc3C2)c(C)c1	-3%	/	/	/	/	0.7	/	1.7	/
O=C(O)COc1ccc(-c2nnn(CC(=O)O)n2)cc1	-3%	/	/	/	/	0.71	/	2.5	-2
CCCNc1cc(=O)n(C)c(=O)n1C	29%	/	/	/	/	0.67	/	1.1	1
CCNc1nc(NCC)n2c(SCC(=O)Nc3ccc(F)cc3[N+](=O)[O-])nnc2n1	19%	7	-7	-0.3	-1.7	0.65	i	3.2	-3
O=C(NCC[C@H]1CC[C@@H](NS(=O)(=O)c2ccccc2)[C@@H](CO)O1)c1ccc2c(c1)OCO2	/	-3	-4	0.4	-1.6	/	i	/	/
C[C@@H]1CN([C@@H](C)CO)C(=O)c2cccc(NC(=O)C3CC3)c2O[C@@H]1CN(C)C(=O)Nc1ccc(C(F)(F)F)cc1	/	-5	-5	0.1	-0.4	/	i	/	/
C[C@H]1CN([C@@H](C)CO)C(=O)c2cc(NS(=O)(=O)c3cn(C)cn3)ccc2O[C@@H]1CN(C)Cc1ccc(C(=O)Nc2ccccc2N)cc1	/	8	4	-1.3	0.8	/	i	/	/
CN(C)CC(=O)N1[C@@H]2Cn3c(ccc(-c4ccccc4)c3=O)[C@H]1[C@@H](C(=O)N1CCOCC1)[C@@H]2CO	/	2	10	-0.1	0.7	/	i	/	/
CNC(=O)CSc1cn(CC(=O)N(C(C)C)C(C)C)c2ccccc12	10%	0	-7	-2.1	-2.2	0.68	i	0.8	/
Cc1noc(C)c1CN1C(=O)NC2(CCCCCCC2)C1=O	28%	/	/	/	/	0.72	/	0.1	-1
O=C(NCCN1C(=O)CSC1=O)c1ccccc1	31%	/	/	/	/	0.63	/	0.2	-1
COc1ccccc1CNS(=O)(=O)c1cc(C)ccc1OC	6%	/	/	/	/	0.7	/	2.7	0
CCN(CC)CCCNC(=S)N(Cc1cccnc1)Cc1cc2cccc(C)c2[nH]c1=O	9%	-1	1	-1.7	2.4	0.74	i	-0.2	-5
Cn1nc(C(=O)Nc2ccc(S(=O)(=O)Nc3ncccn3)cc2)ccc1=O	?	19	11	2.2	-2.2	0.68	i	-7.2	54
COc1ccc(CN2C[C@H](O)COC[C@H]3O[C@@H](CC(=O)N(C)C)CC[C@@H]32)cc1	/	1	-3	-3.7	-3.9	/	i	/	/
CCOc1ccc2[nH]c3c(NCCOC)ncnc3c2c1	/	-10	-5	-2.8	6.6	0.63	i	0.9	-17
COC(=O)c1ccc(-c2noc(CN(Cc3nccn3C)C(C)C)n2)cc1	25%	-11	-10	-2.1	5.2	0.67	i	2.4	-18
FC(F)(F)c1nnc2ccc(N3CCN(c4ccccc4)CC3)nn12	9%	/	/	/	/	0.73	/	-0.9	60
COc1ccc(/C=N/NC(=O)c2ccc3ccccc3c2)cc1OS(=O)(=O)c1ccc(NC(C)=O)cc1	77%	/	/	/	/	/	/	0.5	-1

Looked up above:
COc1ccc(/C=N/NC(=O)c2ccc3ccccc3c2)cc1OS(=O)(=O)c1ccc(NC(C)=O)cc1 @ ALR H2O2 inh = -1
COc1ccc(CN2C[C@H](O)COC[C@H]3O[C@@H](CC(=O)N(C)C)CC[C@@H]32)cc1 @ Ecoli rRNA inh OD600 = -3

(further entries)
SMILES	Vif TR-FRET	Ecoli rRNA inh	Ecoli rRNA inh OD600	Ecoli rRNA inh RFP	MLL AF4-AF9 inh	E coli growth	FGF22 binding	HNF4A DNA FP	ALR H2O2 inh
C[C@@H](O)C#Cc1ccc2c(c1)O[C@H](CN(C)C(=O)C1CCC1)[C@@H](C)CN([C@@H](C)CO)S2(=O)=O	/	1	5	0.8	-0.7	/	i	/	/
CCOC(=O)N1CCC(NC(=O)CSCc2nc(-c3ccccc3Cl)oc2C)CC1	/	-3	-10	0.0	-0.9	0.65	i	3.1	62
Cc1ccc(-c2nnc(Nc3ccc(C(=O)N(C)C)cc3)c3ccccc23)cc1S(=O)(=O)NCC1CCCO1 (configuration not stated)	/	/	/	/	/	0.7	/	2.3	-15
Cc1ccc(S(=O)(=O)N(C)C[C@@H]2Oc3ccc(NC(=O)Cc4cn(C)c5ccccc45)cc3CC(=O)N([C@H](C)CO)C[C@@H]2C)cc1	/	6	-2	3.0	-2.0	/	i	/	/
CCOC(=O)c1ccc(NC(=O)CSC2=NN3CCCC(=O)N=C3S2)cc1	/	3	5	-0.3	-2.8	0.7	i	-2.7	-1
Cc1ccc(NC(=O)c2cc(=O)c3ccccc3o2)cc1S(=O)(=O)N1CCOCC1	0%	-7	5	18	1.7	0.7	i	-1.2	26
O=C(Cc1cccs1)N1CCC(c2nc3c(nnn3Cc3ccc(F)cc3)c(=O)[nH]2)CC1	7%&2%	/	/	/	/	0.65	/	2.0	-1
Cc1ccc(CS(=O)Cc2ccc(C(=O)NCc3ccc(OC(C)C)cc3)o2)cc1 (configuration not stated)	/	11	24	-0.8	-0.8	0.68	i	3.8	0
Cn1ncc(Br)c1C(=O)Nc1ccc(Cl)cn1	3%	/	/	/	/	0.68	/	0.8	0
CCCc1cc(=O)[nH]c(SCC(=O)NCCN2C(=O)CSC2=O)n1	/	8	4	-6.3	-5.1	0.64	i	-2.2	4
C/C=C/c1ccc([C@H]2[C@H](CO)N(C(=O)CC)[C@H]2CNC(=O)CC)cc1	/	1	5	-0.7	-0.7	/	i	/	/
CC(C)NC(=O)CN1CCN(C(c2cc3ccccc3o2)c2nnnn2C(C)(C)C)CC1 (configuration not stated)	/	14	-1	3.5	-1.4	/	i	4.3	/
c1cnn(-c2cncc(-n3cccn3)n2)c1	10%	29	23	5.3	-3.4	0.68	i	2.4	/
C[C@H]1CN([C@@H](C)CO)C(=O)Cc2cc(NC(=O)Nc3ccccc3)ccc2O[C@H]1CN(C)Cc1ccccc1	/	-8&-6	-44&-22	32&-9.6	5.4&9.2	/	i	-2.0	/
Cc1cccc2cc(/C=C3\N=C(c4ccccc4)OC3=O)c(N3CCOCC3)nc12	?	/	/	/	/	0.73	/	6.4	5
COc1cccc(-n2nnnc2SCC(=O)NC2CCCC2)c1	0%	/	/	/	/	0.71	/	-2.2	-3
O=C1/C(=C/c2ccccc2)CCC1C1CCCC1 (configuration not stated)	-3%	/	/	/	/	0.73	/	0.0	-2
O=C(C[C@H]1C[C@@H]2c3cc(NC(=O)C4CCC4)ccc3O[C@@H]2[C@@H](CO)O1)NCc1cccc(F)c1	/	-9	-20	2.5	-0.2	/	i	/	/
Cc1ccc(Cn2nnnc2CN2CCC(c3nc4ccc(Cl)cc4[nH]3)CC2)cc1	2%	/	/	/	/	0.64	/	2.6	-28
C[C@@H]1CCCCO[C@@H](CN(C)C(=O)C2CCCCC2)[C@@H](C)CN([C@H](C)CO)C(=O)c2cc(NC(=O)NC3CCCCC3)ccc2O1	-5%	4&5	2&1	-0.3&-0.5	-0.1&-6.2	/	i	1.9	/
Oc1cc(O)cc(-c2cc3ccc(O)cc3o2)c1	/	/	/	/	4.4	0.72	+	-0.5	99*
CC(C)(C)C(=O)CNS(=O)(=O)c1ccc(S(=O)(=O)NC2CC2)cc1	/	3	5	-2.5	-1.7	0.71	i	0.8	/

The list is partial. The share of hits here may be higher or lower than overall.
